# Bioassay records deposited in PubChem by Vanderbilt University.
# GIRK2 activ: activators of human GIRK2 potassium channels. G protein-activated inward rectifier potassium channel 2 (Homo sapiens), P48051. HEK293-GIRK2 thallium flux, Thallos fluorescence. calls only for hits at 25 µM. 63,000 tested, 0.05% active. AID 1259325, 2017;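 active means among the strongest 0.2% of first-round signals and kept after retests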;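 further: first round at about 10 µM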
# Target sequence (P48051 whole entry, looked up): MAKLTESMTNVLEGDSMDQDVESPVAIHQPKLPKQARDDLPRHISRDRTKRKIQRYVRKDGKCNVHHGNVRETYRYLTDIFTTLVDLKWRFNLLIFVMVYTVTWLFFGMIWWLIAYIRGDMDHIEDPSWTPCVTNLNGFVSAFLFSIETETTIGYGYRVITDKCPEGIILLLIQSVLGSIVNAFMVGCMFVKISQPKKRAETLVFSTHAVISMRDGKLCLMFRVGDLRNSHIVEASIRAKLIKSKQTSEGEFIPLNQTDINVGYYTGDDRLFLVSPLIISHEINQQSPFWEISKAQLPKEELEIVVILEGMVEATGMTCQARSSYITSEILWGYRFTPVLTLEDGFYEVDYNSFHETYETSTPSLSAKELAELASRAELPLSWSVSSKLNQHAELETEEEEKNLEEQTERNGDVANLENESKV
# Calls only; i = inactive. Only part of the results is shown, so the mix of outcomes need not match the whole.
no.	smiles	GIRK2 activ
1	CN1c2cc(F)ccc2C(=O)NC12CCN(C(=O)c1cc(F)cc(F)c1)CC2	i
2	O=C(c1ccncc1)N1CCC(c2cccs2)CC1	i
3	Cc1nc2cc(NC(=O)c3cc(-c4cccs4)[nH]n3)ccc2s1	i
4	CCOC(=O)CCC(=O)Nc1ccc(-n2nnc(C(N)=O)n2)cc1	i
5	COc1ncccc1C(=O)NCC1CCS(=O)(=O)C1 (configuration not stated)	i
6	Cc1ccc(-c2noc(-c3cccn(CC(=O)NC4CCCCC4)c3=O)n2)cc1	i
7	COc1ccc(CC(C)(O)CNC(=O)c2c(C)cc(C)cc2C)cc1 (configuration not stated)	i
8	O=C(c1nnn(-c2ccc(Br)cc2)n1)N1CCc2ccccc2C1	i
9	CC(C)(O)C(O)COc1c2occc2cc2ccc(=O)oc12 (configuration not stated)	i
10	COc1ccc(CCNC(=O)c2ccc3c(=O)nc4c(-c5ccccc5)n[nH]n4c3c2)cc1OC	i
11	C=CCn1c(=O)c2c(nc3n(-c4ccc(OCC)cc4)c(-c4ccccc4)cn23)n(C)c1=O	i
12	CCSc1ccccc1C(=O)Nc1ccc(-n2nnc(C(=O)N3CCCC3)n2)cc1	i
13	CCOC(=O)c1oc2cc(OC(=O)c3ccco3)ccc2c(=O)c1-c1ccccc1OC	i
14	CC(C)(C)C1CCc2c(sc3nc(CCC(=O)NCc4ccccn4)[nH]c(=O)c23)C1 (configuration not stated)	i
15	C=CCNC(=O)CSc1nnnn1-c1ccccc1OCC	i
16	CC1(C)CC(=O)c2sc(NC(=O)CCCSc3ccc(F)cc3)nc2C1	i
17	CCCCOc1ccc(NC(=O)NCC(C)(O)CCc2ccccc2)cc1 (configuration not stated)	i
18	CNC(=O)CSc1ncc(-c2ccccc2)n1-c1cccc(C(F)(F)F)c1	i
19	CCOc1ccc(-c2nc(Cn3nnc(C(=O)Nc4ccc(OC)c(OC)c4)c3N)c(C)o2)cc1	i
20	O=C(Nc1nnc(-c2ccco2)o1)c1ccc2nsnc2c1	i
21	COc1ccc(C2CC3C4NN=C(SCC(=O)Nc5ccc(OC)c(Cl)c5)N4C=CN3N2)cc1 (configuration not stated)	i
22	CC1CCN(S(=O)(=O)c2cc(Br)ccc2Br)CC1	i
23	O=C(Nc1nccs1)C1CCN(C(=O)c2cc3ccccc3oc2=O)CC1	i
24	COc1ccc(Oc2coc3cc(OC(=O)N4CCOCC4)ccc3c2=O)cc1	i
25	COC(=O)c1c(NCc2cccc(OC)c2)c2cccc(Cl)c2[nH]c1=O	i
26	O=C(Nc1ccc(Nc2cc(-n3cccn3)ncn2)cc1)Nc1ccc(F)cc1F	i
27	Cc1cc2ncn(CC3CCN(C(=O)/C=C/c4ccco4)CC3)c2cc1C	i
28	O=C(NCCCO)c1cnn2c1OCCC2	i
29	CC(C)NCC(O)COc1ccccc1C(C)C (configuration not stated)	i
30	CC(C)c1nnc(C2CCN(C(=O)c3ccco3)CC2)o1	i
31	COCCOCC1CCN(C(=O)NCc2ccc(OC)cc2)CC1	i
32	O=C(CN1CCN(c2cccc(Cl)c2)C1=O)Nc1cccc2cccnc12	i
33	Cc1ccc(Cn2ccn3nc(-c4ccc(C)c(C)c4)cc3c2=O)cc1	i
34	O=C(CCSc1ccccc1)N1CCN(CC(F)(F)F)CC1	i
35	COC1(CNC(=O)NCCOc2ccccc2)CCSC1 (configuration not stated)	i
36	COc1ccc(CNC(=O)CCc2csc(NC(=O)Nc3ccccc3)n2)cc1	i
37	Cc1ccc(OCC(O)Cn2c(NCc3ccccc3)nc3c2c(=O)n(C)c(=O)n3C)cc1C (configuration not stated)	i
38	COc1cccc2cc(C(=O)OCC(=O)c3cccs3)c(=O)oc12	i
39	COc1ccc(OC)c(NC(=O)CSc2nc3c(-c4ccc(C)cc4)csc3c(=O)n2C)c1	i
40	CCCCOc1ccc(C(=O)Nc2nonc2-c2ccc(OC)cc2)cc1	i
41	CCC(=O)N1CCCc2cc(NC(=O)c3ccc(OC)cc3)ccc21	i
42	CC(C)=C1SC(=O)NC1=O	i
43	COCCN1C(=O)C2C(c3ccc(O)cc3)NN(C)C2C1=O (configuration not stated)	i
44	O=C(c1ccco1)N1CCN(c2nc(N3CCCC3)c3n[nH]nc3n2)CC1	i
45	COc1nn(C)cc1C(=O)Nc1nnc(SCC(=O)N2CCCC2)s1	i
46	CCSc1nnc(NC(=O)CN2CCN(Cc3nc4ccccc4n3C)CC2)s1	i
47	CCOc1ccc(OCCNS(=O)(=O)c2cc(C)c(C)cc2C)cc1	i
48	CC(=O)Cn1c(=O)c2c(nc3n(-c4cc(C)ccc4C)c(C)c(C)n23)n(C)c1=O	i
49	COc1ccc(N2C(=O)N(Cc3ccc(C#N)cc3)c3ccccc3S2(=O)=O)cc1OC	i
50	COc1ccccc1-c1c(C)oc2c3c(ccc2c1=O)OCN(CCc1cccs1)C3	i
51	O=C(/C=C/c1ccc(F)cc1)Nc1cc(-n2cccn2)ncn1	i
52	CCOc1ccccc1CNC(=O)C1CCN(c2ncccc2S(=O)(=O)N2CCCCC2)CC1	i
53	CCCN(CCC)S(=O)(=O)c1ccc(C(=O)O)cc1	i
54	O=C(Oc1ccc2c(=O)c(-c3ccccc3)coc2c1)c1cccc([N+](=O)[O-])c1	i
55	COc1ccccc1-c1noc(CSc2nc3cc4c(cc3c(=O)n2CCC(C)C)OCO4)n1	i
56	CC(C)NC(=O)C1CCC(Cn2c(=O)c3sccc3n(CC(=O)Nc3ccccc3)c2=O)CC1 (configuration not stated)	i
57	Cc1ccccc1-c1ccc(N2CCCC(C(=O)Nc3cc(N4CCCC4)ncn3)C2)nn1 (configuration not stated)	i
58	Cc1ccccc1NC(=O)N1CCCSCC1CN1CCCCC1 (configuration not stated)	i
59	COCCNC(=O)NC1CCCC(OC(=O)Nc2ccccc2)C1 (configuration not stated)	i
60	Cc1ccc(NC(=O)C(=O)NCCN2CCN(c3ccc(F)cc3)CC2)cc1Cl	i

# Continued:
no.	smiles	GIRK2 activ
61	CN(CC(=O)NC1CCSC1=O)c1nc2ccccc2s1 (configuration not stated)	i
62	COc1ccc(NC(=O)C2OC3OC(C)(C)OC3C3OC(C)(C)OC23)c(OC)c1 (configuration not stated)	i
63	CC(C(=O)Nc1ccc(-c2cn3ccsc3n2)cc1)n1nc(-c2ccc(F)cc2)ccc1=O (configuration not stated)	i
64	O=C(c1ccc(S(=O)(=O)N2CCCCC2)cc1)N1CCOC(c2cc(Cl)cc(Cl)c2)C1 (configuration not stated)	i
65	O=C(NCc1n[nH]c(=O)c2ccccc12)c1c(F)cccc1Cl	i
66	Cc1ccc(NS(=O)(=O)c2n[nH]c(C)c2C(=O)Nc2ccc(C)c(Cl)c2)cc1	i
67	CN(CCCC(N)=O)S(=O)(=O)c1ccc2c(c1)C(=O)c1ccccc1C2=O	i
68	COc1ccc(-n2nnc(C(=O)Nc3cc(C(F)(F)F)ccc3Cl)n2)cc1	i
69	O=C(Cn1ccn(-c2ccccc2)c(=O)c1=O)Nc1ccc(F)cc1	i
70	Cc1cc(F)ccc1NC(=O)CN1CN(c2cccc(F)c2)c2ncccc2S1(=O)=O	i
71	COc1ccc(C(=O)CNc2ccc(C)cc2C)cc1	i
72	O=C(CCn1ccc(=O)[nH]c1=O)N1CC(c2nc(-c3cccs3)no2)C1	i
73	O=C(C1CC(=O)N(c2ccccc2)C1)N1CCC(Oc2ccc(Cl)cn2)CC1 (configuration not stated)	i
74	Cc1cc(C)c(S(=O)(=O)N2CCN(c3cccc(C)c3C)CC2)c(C)c1	i
75	O=C(Nc1ccc2c(=O)c3cccc(F)c3oc2c1)c1ccccc1[N+](=O)[O-]	i
76	COc1ccccc1CNC(=O)C(=O)Nc1cc(C)nc2ccccc12	i
77	COc1cccc(N=c2oc3c(OC)cccc3cc2S(=O)(=O)c2ccccc2)c1	i
78	CCOc1ccc(-c2ccc(=O)n(CC(=O)NC3CCCCC3)n2)cc1	i
79	COc1ccccc1CNc1nccn(-c2ccc(Br)cc2)c1=O	i
80	Cn1c(=O)c2c(nc(N=Nc3c(O)[nH]c4ccccc34)n2Cc2ccccc2)n(C)c1=O	i
81	C1COC(CNc2nc(N3CCOCC3)c3n[nH]nc3n2)C1 (configuration not stated)	i
82	CCN(CC)S(=O)(=O)c1ccc(OC)c(C(=O)O)c1	i
83	O=C(c1cc(-c2ccco2)on1)N(CCc1cccs1)Cc1ccoc1	i
84	O=C(Nc1ccc2c(c1)C(=O)NCC2)Nc1cccs1	i
85	O=C(O)CCC/C=C\CC1C2CCC(O2)C1CNNC(=O)Nc1ccccc1 (configuration not stated)	i
86	O=C(COc1ccccc1F)N1CCC(Oc2ncccc2Cl)CC1	i
87	Cn1cnnc1SCCNC(=O)c1cc(-c2ccc3c(c2)OCO3)n[nH]1	i
88	O=C1CCc2ccc(OCC(=O)N3CCN(c4ccccc4Cl)CC3)cc21	i
89	COCc1nc2ccccc2n1CCCCOc1ccccc1C	i
90	Cc1ccccc1N1CCCn2c1nc1c2c(=O)n(CC(=O)O)c(=O)n1C	i
91	COc1ccc(CNC(=O)c2ccc(-n3ccc(C)n3)nc2)cc1OC	i
92	CCOCCCNc1nc(N2CCOCC2)c2n[nH]nc2n1	i
93	C[C@@H]1CC(=O)C2=C(C1)C[C@@H](O)[C@@]1(O)C2C(=O)c2cccc(O)c2[C@@H]1O (some centres not stated)	i
94	Cc1cc(-n2nc(C)cc2C)n2ncc(-c3ccccc3)c2n1	i
95	COc1ccc(F)cc1S(=O)(=O)N1CC(c2nc(-c3cccc(Cl)c3)no2)C1	i
96	O=C(NCCN1CCN(C(=O)c2ccco2)CC1)c1ccsc1	i
97	O=C(CCCS(=O)(=O)Cc1ccccc1)Nc1nnc(-c2ccc3c(c2)CCCC3)o1	i
98	CCOc1ccccc1NC(=O)NCCN1CCN(C(=O)c2cccs2)CC1	i
99	O=c1oc2ccc(Br)cc2cc1S(=O)(=O)N1CCc2ccccc2C1	i
100	COc1cccc(/C=C2\Oc3cc(OC(=O)c4cc(OC)c(OC)c(OC)c4)ccc3C2=O)c1OC	i
101	CCc1ccc(NC(=O)CSc2ccc(-c3nc(C4CC4)no3)cn2)cc1	i
102	CCOC(=O)CCn1c(=O)c2c(nc3n(-c4ccccc4)c(C)cn23)n(C)c1=O	i
103	O=C(Nn1c(=O)c2ccccc2c2ccccc2c1=O)c1ccccc1	i
104	CC(=O)N1CCN(c2cc3c(cc2F)c(=O)c(C(=O)Nc2cccnc2)cn3C2CC2)CC1	i
105	CCC(C)CC(=O)OC1C(=O)C(CO)=CC(OC(C)=O)C1C(C)C (configuration not stated)	i

# Sorted by number of heavy atoms (lowest first): three of the compounds above
no.	smiles	GIRK2 activ
92	CCOCCCNc1nc(N2CCOCC2)c2n[nH]nc2n1	i
94	Cc1cc(-n2nc(C)cc2C)n2ncc(-c3ccccc3)c2n1	i
102	CCOC(=O)CCn1c(=O)c2c(nc3n(-c4ccccc4)c(C)cn23)n(C)c1=O	i

# Following part:
no.	smiles	GIRK2 activ
106	O=C(Nc1ccc(-c2ccn[nH]2)cc1)c1ccc2ncsc2c1	i
107	CC(C)CCOc1ccc(NC(=S)Nc2ccc(OCCC(C)C)cc2)cc1	i
108	Cc1ccc(C(C)C)c(OCC(O)Cn2c(N3CCCC3)nc3c2c(=O)n(C)c(=O)n3C)c1 (configuration not stated)	i
109	COc1ncccc1C(=O)N1CCN(S(=O)(=O)C2CC2)CC1	i
110	Cn1cnnc1SCc1cc(=O)c(OCC(=O)Nc2ccc3c(c2)OCO3)co1	i
111	Cc1nc2c(c(=O)n1CC(=O)NC1CCCC1)CN(Cc1ccccc1)CC2	i
112	COc1ccccc1-n1nnc(C(=O)OCc2nc(-c3ccc(Cl)cc3)oc2C)c1C	i
113	COc1ccc(S(=O)(=O)N2CCN(c3ccc(-c4ccc(C)c(C)c4)nn3)CC2)cc1	i
114	COc1cc([N+](=O)[O-])ccc1NC(=O)C1=Cc2ccccc2OC1	i
115	Cc1cc(N2C(=O)C(=O)C(=C(O)c3ccc(Cl)cc3)C2c2ccc([N+](=O)[O-])cc2)no1 (configuration not stated)	i
116	Cc1c(C(=O)NCc2ccco2)nnn1-c1ccc2noc(-c3ccc(Cl)cc3)c2c1	i
117	O=C(CN1CCN(Cc2nc(-c3ccc(F)cc3)cs2)CC1)Nc1ccc(F)cc1F	i
118	O=C(NCC1CCCO1)c1cc(-c2ccc(F)cc2)c[nH]1 (configuration not stated)	i
119	O=C(Nc1nc2c(s1)CN(C(=O)c1ccco1)CC2)NC1CCCC1	i
120	Cc1ccc(CNC(=O)Cn2c(-c3nc(C(C)C)no3)cccc2=O)cc1	i

# From entry 106 as far as 107, copied from above:
no.	smiles	GIRK2 activ
106	O=C(Nc1ccc(-c2ccn[nH]2)cc1)c1ccc2ncsc2c1	i
107	CC(C)CCOc1ccc(NC(=S)Nc2ccc(OCCC(C)C)cc2)cc1	i

# The results go on.
no.	smiles	GIRK2 activ
121	O=C(CSc1nnc2ccc(C(=O)Nc3cccc(F)c3)cn12)Nc1ccccc1C(F)(F)F	i
122	CCCCCCCCCCCCCCCCOP(=O)([O-])OCC[N+](C)(C)C	i
123	Cc1cccc(CSc2nc3c(c(=O)[nH]2)CN(Cc2ccccc2)CC3)c1	i
124	O=C(CSc1ccc(-n2cnc(-c3ccccc3)c2)nn1)NCc1ccc(F)cc1	i
125	Cc1ccc(Cn2c(=O)c3ccccc3n3c(CCC(=O)NC4CCN(Cc5ccccc5)CC4)nnc23)cc1	i
126	O=C(c1cc2ccccc2[nH]1)N1CCN(Cc2csc(-c3ccccc3)n2)CC1	i
127	COc1ccc(-c2noc(Cn3c(=O)n(Cc4ccc(C)cc4)c(=O)c4ccccc43)n2)cc1	i

# Shown with the structure last: entries from further up.
cpd | GIRK2 activ | Structure
127 | i | COc1ccc(-c2noc(Cn3c(=O)n(Cc4ccc(C)cc4)c(=O)c4ccccc43)n2)cc1
124 | i | O=C(CSc1ccc(-n2cnc(-c3ccccc3)c2)nn1)NCc1ccc(F)cc1
126 | i | O=C(c1cc2ccccc2[nH]1)N1CCN(Cc2csc(-c3ccccc3)n2)CC1
123 | i | Cc1cccc(CSc2nc3c(c(=O)[nH]2)CN(Cc2ccccc2)CC3)c1
125 | i | Cc1ccc(Cn2c(=O)c3ccccc3n3c(CCC(=O)NC4CCN(Cc5ccccc5)CC4)nnc23)cc1
